# GIV-Gai inh – GIV-Galpha-i interaction inhibition; P08753; Galpha-i3/FITC-GIV peptide fluorescence polarization, 90 min; hits give low values; scaled: aluminum fluoride 0%, vehicle 100%; percent of control (FP), % (no concentration beside the values); actives 0.42% (n = 210,000); AID 1224905;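 active means replicate mean at 85% of control or lower, very high polarization wells dropped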;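 further: wells of about 15 µL received 100 nL stock; the first replicate is given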
# Target sequence (P08753 whole entry, looked up): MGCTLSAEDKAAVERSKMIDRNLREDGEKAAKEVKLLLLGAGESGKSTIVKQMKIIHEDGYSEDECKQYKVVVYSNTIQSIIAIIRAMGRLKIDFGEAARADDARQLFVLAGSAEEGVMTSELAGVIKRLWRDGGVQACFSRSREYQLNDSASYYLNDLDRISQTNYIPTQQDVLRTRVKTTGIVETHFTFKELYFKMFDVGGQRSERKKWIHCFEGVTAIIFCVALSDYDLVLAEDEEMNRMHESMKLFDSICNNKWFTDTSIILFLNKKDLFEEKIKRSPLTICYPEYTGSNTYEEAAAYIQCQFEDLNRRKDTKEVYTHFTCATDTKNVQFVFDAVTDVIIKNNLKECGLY
# HCMV UL50-53 inh – inhibitors of HCMV UL50-UL53 nuclear egress complex interaction | HTRF UL50-UL53 interaction, normalized percent inhibition | inhibition, % (concentration not given with the values) | actives 0.15% (n = 190,000);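 active means both replicates at 50% or more, plus weaker picks with an unusually low signal ratio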;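 further: stock transfer was 100 nL into about 20 µL; 0% = negative control wells and 100% = wells with untagged competitor protein; inactives centre near -12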
# Sa growth 42C – S. aureus growth inhibition | actives 0.53% (n = 170,000) | relative growth, % (test concentration not listed) | S. aureus RN4220 growth, OD600, 20 h, 42 °C; hits give low values | AID 720641;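 active means growth at 42 °C up to 50% and 20 or more points under that at 30 °C, or under 10% at both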;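 further: 300 nL library stock went into each well; scaled to the means of positive and negative controls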
# Sa growth 42C second temp – also measured in Sa growth 42C; calls as there; relative growth, %; measured here: growth at 30 °C;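 optical density after 20 h as mean of two plates; 100% = untreated growth and lower means inhibition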
# * hit, by the source's call; . = not tested or not shown; & = joins results of further samples.
SMILES,GIV-Gai inh,HCMV UL50-53 inh,Sa growth 42C,Sa growth 42C second temp
O=C(O)C1CNC(c2ccccc2)S1 (stereo unspecified),.,-6,93,93
Cc1ccc(CNC(=O)C2CC3CCCN3C23C(=O)N(C)c2ccccc23)cc1 (stereo unspecified),108,-10,103,86
CCn1cc(CN(Cc2ccccc2)C(=S)Nc2ccc(Cl)cc2OC)c2ccccc21,104,.,95,100
Cc1ccc(C(c2sc3nc(-c4ccco4)nn3c2O)N2CCN(c3ccc(F)cc3)CC2)cc1 (stereo unspecified),102,.,112,97
Fc1cccc(-c2nnc(-c3ccccc3Cl)o2)c1,98,13,.,.
CCCN1Cc2cccc(C(=O)Nc3ccc(C(C)=O)cc3)c2C1=O,102,-3,89,95
CCOc1ccc(NC(=O)c2cc(-c3ccc(F)cc3)[nH]c2C)cc1,108,.,104,78
O=S(=O)(c1ccccc1)N(CCOc1ccc(F)cc1)c1nccs1,.,-14,111,84
CN(CC(=O)NCc1ccccn1)S(=O)(=O)c1ccccc1,105,-16,82,74
O=C(CCCn1c(=O)oc2ccccc21)NC1CCCc2ccccc21 (stereo unspecified),.,-16,93,80
Cc1[nH]c2ccc(CNC(=O)Nc3ccc(Cl)cc3)cc2c1C,102,-24,.,.
COc1ccccc1CNC(=O)C1(C)Cn2c(cc3ccsc32)C(=O)N1c1ccc(OC)c(OC)c1 (stereo unspecified),102,-42,.,.
CC(=O)N1CCc2cc(C(=O)C[n+]3ccccc3)ccc21,97,-7,89,92
O=C(CN1c2ccc(F)cc2-c2ccccc2S1(=O)=O)NCCCn1ccnc1,99,-18,.,.
Cc1cc(C(F)(F)F)n2nc(C)cc2n1,107,-14,124,105
Cc1c(C(=O)N2CCNCC2)sc2nc[nH]c(=O)c12,102,-13,.,.
N#Cc1ccc(CN2C(=O)CCC2=O)cc1,.,-22,92,90
O=C(CSC1=Nc2ccccc2C2=NC(CCC(=O)NC3CCCCC3)C(=O)N12)Nc1cccc(Cl)c1 (stereo unspecified),111,18,107,91
COc1ccc(CNC(=O)CN(c2ccccc2)S(=O)(=O)N(C)C)cc1,98,10,96,101
O=C(O)C1Sc2[nH]c(=O)sc2C2c3cc(Br)cc(Br)c3OC(=O)C12 (stereo unspecified),104,-23,91,55
COc1ccc(NC(=O)C2C(c3ccccc3)=C2c2ccccc2)cc1,.,11,73,100
CC(=O)N1c2c(cc(Br)cc2S(=O)(=O)NCc2ccccc2Cl)CC1C (stereo unspecified),100,-14,101,83
O=c1nccc(C(F)(F)F)[nH]1,.,3&23,109&120,88&104
Cc1ccc(-c2nc3n(n2)C(=O)CC(c2ccc4c(c2)OCO4)S3)cc1 (stereo unspecified),94,0,104,111
Cn1nnnc1SCCCC(=O)c1ccc(F)cc1,.,25,106,101
COc1ccc2oc(=Nc3ccc(C#N)cc3)c(C(=O)Nc3ccccc3)cc2c1,102,-11,.,.
CCc1ccc(NC(=O)Cn2cnc3nc4c(cc3c2=O)CCCC4)cc1,108,.,107,104
CN1CCN(c2ncc3c(n2)CCN(Cc2ccccc2Cl)C3)CC1,102,.,98,94
CC(NC(=O)c1ccncc1)c1ccccc1 (stereo unspecified),.,-14,105,81
COc1ccc(CCNC(=O)Cn2cc(S(=O)(=O)Cc3ccccc3Cl)c3ccccc32)cc1OC,101,.,122,82
CCOC(=O)N1CCc2c(sc(NCc3ccc(N(C)C)cc3)c2C(=O)Nc2ccc(OC)cc2)C1,107,.,112,81
Cn1c(CNc2ccc(Cl)cc2)nnc1SCc1ccc(Cl)cc1,107,10,110,110
O=C1N(c2ccc(Cl)cc2)C(c2ccc(Cl)cc2)N2CCCN12 (stereo unspecified),112&98,18&-6,106,88
CC(=O)NCc1ccc(C(=O)COC(=O)c2cc(C)nc3ccccc23)o1,.,-34,101,88
CCOC(=O)c1[nH]c(COC(=O)[C@H](C)NS(=O)(=O)c2ccc(OC)cc2)c(C(=O)OCC)c1C,.,-32,109,94
S=c1[nH]c2ccccc2nc1N1CCOCC1,99,-79,104,81
CC(C)NCCn1c(-c2ccc(Br)cc2)cn2c3ccccc3nc12,.,1,131,71
O=C(NC1CC1)c1ccc(Cn2c(SCc3ccc(F)cc3)nc3cccnc32)cc1,102,.,109,95
Cc1nc2ccccc2c(=O)n1NCc1cccs1,101,.,104,104
CC1=C(C(=O)Nc2ccc(C)cc2)C(c2ccco2)n2c(nc3ccccc32)N1 (stereo unspecified),107,-28,105,95
CCCN(CC(=O)Nc1ccc(F)c(F)c1F)C(=O)c1cc2ccccc2o1,.,-18,99,94
Cc1ccc(CNC(=O)C(CC(C)C)N2Cc3ccccc3C2=O)cc1 (stereo unspecified),104,.,112,112
CCC(=O)N1CCN(Cc2nc3cc(NC(=O)C4CCCCC4)ccc3n2CC)CC1,109,1,.,.
Cc1ccc2oc3c(c(=O)c2c1)C(c1ccc(O)cc1)N(CCCN(C)C)C3=O (stereo unspecified),106,-19,108,105
CSc1nsc(SC)c1C(=O)NCc1ccc2c(c1)OCO2,100,-24,116,88
O=C(Nc1cnc2ccccc2c1)c1cc2c(s1)-c1ccccc1OC2,99,-6,.,.
COC(=O)c1sc(NC(=O)c2ccccc2)c(C(=O)OC)c1C,.,-7,107,81
CCc1ccc(OC(=O)c2ccc(C)cc2)cc1,.,-16,103,107
CCOC(=O)c1ccc(CN(Cc2ccc(F)cc2)S(=O)(=O)c2ccc(F)cc2)cc1,94,.,125,85
Cc1ccc(Cl)cc1N1CCN(CCCNC(=O)C2COc3ccccc3C2)CC1 (stereo unspecified),99,.,84,81
Cc1ccc(-n2c(=O)c3c4c(sc3n(Cc3ccccc3C)c2=O)CCC4)cc1C,99,24,93,102
Cc1nc2cc3ccccc3cc2c(=O)n1CCCNC1CCCCC1,.,-40,101,96
OC(CSc1ccc(F)cc1)CN1CCN(c2nc3ccc(Cl)cc3s2)CC1 (stereo unspecified),98,.,96,82
Cc1ccc(C(C)(C)C)c(OCCN2CCCC2)c1,98,0,102,96
CCCSCCCNC(=O)c1cc2n(n1)CCCN(Cc1ccc(C)cc1)C2=O,102,.,102,103
CCc1nc2oc(C(=O)c3ccccc3)c(N)c2c2c1COC(C)(C)C2,100,.,106,92
CO[C@@]1(NC(=O)CSCC#N)C(=O)N2C(C(=O)O)=C(CSc3nnnn3C)CSC21 (stereo partly specified),.,-35,-0.6*,-0.5*
CCOc1ccccc1N(C)C(=O)c1cc(S(=O)(=O)N(CC)c2ccccc2)ccc1F,109,.,94,84
O=C(NC1CC1)c1ccc(Cn2c(SCc3ccc(Cl)cc3)nc3ccncc32)cc1,107,-6,.,.
Oc1ccc(CNc2cccc(Cl)c2)c2cccnc12,.,-18,82,86

# (further entries)
SMILES,GIV-Gai inh,HCMV UL50-53 inh,Sa growth 42C,Sa growth 42C second temp
CCC(=O)Oc1ccc2c(=O)c(-c3ccc(OC)c(OC)c3)c(C(F)(F)F)oc2c1,99,-36,.,.
Cc1cccc2nc(-c3ccco3)c(Nc3ccc4c(c3)OCO4)n12,107,-23,111,80
Cc1ccc(-c2ccc(CCC(=O)O)n2-c2cc(C)cc(C)c2)cc1,100,.,108,86
COC(=O)CSCC(=O)Nc1ncc2c(n1)CC(C)(C)CC2=O,96,-18,.,.
O=S(=O)(NCCn1c(-c2ccc(F)cc2)nc2cccnc21)c1ccc(Cl)cc1,107,-19,.,.
CC1CN(S(=O)(=O)c2ccc(NC(=O)Cc3ccccc3F)cc2)CC(C)O1 (stereo unspecified),.,-15,99,89
CC1Cc2ccccc2N1C(=O)CSc1nc2cc(Cl)ccc2o1 (stereo unspecified),.,-21,94,94
Cc1cc(/C=C(\C#N)C(=O)C(C)(C)C)c(C)n1C1CCCC1,.,-36,102,94
CCC(/C=N/Nc1nc(C)cc(C)n1)CC,.,-32,97,97
O=CN1CCN(CC(O)Cn2c3ccccc3c3ccccc32)CC1 (stereo unspecified),97,.,107,87
CNC(=O)NC(=O)Cn1nc2n(c1=O)-c1ccccc1SC2,107,10,102,93
Cc1ccc2oc(-c3nnc(C(=O)N4CCCC4)o3)c(C)c2c1,105,-42,.,.
CC(NC(=O)CSc1nnc(-c2ccccc2)n1C)c1ccccc1 (stereo unspecified),.,-29,80,93
COc1ccc(Cc2nn3c(Cc4ccccc4)nnc3s2)cc1,100,.,88,67
COc1cccc(N2C(=O)c3ccncc3C2=O)c1,101,-24,101,85
COc1ccc(CCNC(=O)CCc2c(C)nc3c(c(C)nn3-c3ccc(C)c(C)c3)c2C)c(OC)c1OC,103,-30,100,92
O=C(COc1ccccc1)NCc1ccc2c(c1)CCN2C(=O)c1ccc(F)cc1,105,.,133,86
CC(C)c1ccc(NC(=O)CSc2ccc(N3CCc4ccccc4C3)nn2)cc1,105,-41,.,.
O=C(CCC(=O)c1cccs1)OCc1ccccc1,.,2,84,92
Cc1cccc(NC(=O)Nc2c[nH]c(=O)[nH]c2=O)c1C,103,11,.,.
CCOC(=O)c1ccc(NC(=O)C2CC(=O)Nc3nc(C)nn32)cc1 (stereo unspecified),102,-6,.,.
CC(C)c1ccc(NC(=O)Cn2nnc(C(=O)NCc3ccccc3)c2N)cc1,103,-22,99,80
O=C(O)c1ccccc1OCc1ccc2ccccc2n1,.,3,100,71
CCOC(=O)c1ccc(N=c2sc(C(=O)OC)cc(=O)n2CCCN2CCOCC2)cc1,102,3,75,73
CCSc1nc2sc3c(c2c(=O)n1CC)CCc1ccccc1-3,112&109,-12,93,85
CCOC(=O)c1cnc2c(C)c(Cl)ccc2c1NCCc1ccc(OC)c(OC)c1,106,8,98,98
Cc1ccc2oc(C(=O)Nc3ccccc3F)cc(=O)c2c1,100,10,.,.
O=C1C(N2CCCCC2)=C(n2nnc3ccccc32)C(=O)C(N2CCCCC2)=C1n1nnc2ccccc21,101,-8,90,83
c1ccc(Oc2nc(N3CCOCC3)nc(N3CCOCC3)n2)cc1,98,-1,89,97
COc1cc2c(cc1OC)C(c1cccs1)N(C(=O)c1cnn(-c3ccccc3)n1)CC2 (stereo unspecified),.,-22,88,95
COc1ccc(Cn2ccc3nc(C)c(C(=O)N4CCN(c5ccc(OC)cc5)CC4)cc3c2=O)cc1,130,.,98,96
Cc1ccc(CCNC(=O)CCCn2ccc3cc(S(=O)(=O)N4CCCC4)ccc32)cc1,101,11,.,.
Clc1ccc2sc(Sc3ccccc3)nc2c1,101,-20,95,90
CC(C)(C)/C(O)=C/c1nc2ccccc2[nH]c1=O,102,2,113,108

# Entries above that contain an aryl methoxy group:
SMILES,GIV-Gai inh,HCMV UL50-53 inh,Sa growth 42C,Sa growth 42C second temp
CCn1cc(CN(Cc2ccccc2)C(=S)Nc2ccc(Cl)cc2OC)c2ccccc21,104,.,95,100
COc1ccccc1CNC(=O)C1(C)Cn2c(cc3ccsc32)C(=O)N1c1ccc(OC)c(OC)c1 (stereo unspecified),102,-42,.,.
COc1ccc(CNC(=O)CN(c2ccccc2)S(=O)(=O)N(C)C)cc1,98,10,96,101
COc1ccc(NC(=O)C2C(c3ccccc3)=C2c2ccccc2)cc1,.,11,73,100
COc1ccc2oc(=Nc3ccc(C#N)cc3)c(C(=O)Nc3ccccc3)cc2c1,102,-11,.,.
COc1ccc(CCNC(=O)Cn2cc(S(=O)(=O)Cc3ccccc3Cl)c3ccccc32)cc1OC,101,.,122,82
CCOC(=O)N1CCc2c(sc(NCc3ccc(N(C)C)cc3)c2C(=O)Nc2ccc(OC)cc2)C1,107,.,112,81
CCOC(=O)c1[nH]c(COC(=O)[C@H](C)NS(=O)(=O)c2ccc(OC)cc2)c(C(=O)OCC)c1C,.,-32,109,94
CCC(=O)Oc1ccc2c(=O)c(-c3ccc(OC)c(OC)c3)c(C(F)(F)F)oc2c1,99,-36,.,.
COc1ccc(Cc2nn3c(Cc4ccccc4)nnc3s2)cc1,100,.,88,67
COc1cccc(N2C(=O)c3ccncc3C2=O)c1,101,-24,101,85
COc1ccc(CCNC(=O)CCc2c(C)nc3c(c(C)nn3-c3ccc(C)c(C)c3)c2C)c(OC)c1OC,103,-30,100,92
CCOC(=O)c1cnc2c(C)c(Cl)ccc2c1NCCc1ccc(OC)c(OC)c1,106,8,98,98
COc1cc2c(cc1OC)C(c1cccs1)N(C(=O)c1cnn(-c3ccccc3)n1)CC2 (stereo unspecified),.,-22,88,95
COc1ccc(Cn2ccc3nc(C)c(C(=O)N4CCN(c5ccc(OC)cc5)CC4)cc3c2=O)cc1,130,.,98,96

# Screening data (PubChem BioAssay)

# Rows were taken by chance; 0.79% or so of the library scored in one or more.
